Source: PubChem
GLA inh pH 4.5 – inhibitors of human alpha-galactosidase A at pH 4.5; activity change, negative = inhibition, % at 105 µM; P06280; AID 1467; purified enzyme, 4-MU-alpha-Gal fluorescence, pH 4.5; 230,000 tested, under 10 active; inconclusive = small, poorly fitted or top-dose-only inhibition, or a rising curve; inactive = flat fitted curve, though single readings scatter; no compound was filed as active;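 also: 0% = full activity with enzyme and -100% = basal without enzyme; dose as in the result columns while the protocol names 77 µM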
Target sequence (P06280 whole entry, looked up): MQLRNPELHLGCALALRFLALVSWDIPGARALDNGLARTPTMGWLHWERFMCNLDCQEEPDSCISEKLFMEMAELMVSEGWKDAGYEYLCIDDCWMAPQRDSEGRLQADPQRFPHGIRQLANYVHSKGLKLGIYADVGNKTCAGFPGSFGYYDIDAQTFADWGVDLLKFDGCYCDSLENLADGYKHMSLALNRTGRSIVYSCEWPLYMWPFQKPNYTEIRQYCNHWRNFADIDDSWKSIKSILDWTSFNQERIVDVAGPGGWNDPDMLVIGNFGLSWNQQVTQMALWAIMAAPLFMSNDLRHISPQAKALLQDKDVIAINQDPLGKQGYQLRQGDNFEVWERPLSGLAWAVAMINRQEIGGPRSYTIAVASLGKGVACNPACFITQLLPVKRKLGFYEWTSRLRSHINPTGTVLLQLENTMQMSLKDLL
Rango dissoc inh – inhibition of RanGTP-driven Rango-importin beta dissociation; Biochemical FRET Rango-importin beta, RanGTP-induced dissociation; Potency, µM (top dose mostly 46.1 µM), for inactives: at the highest dose activity change, negative = inhibition; hit rate 0.071% among 340,000; AID 540253; active means falling FRET ratio curve, often poorly fitted, with flat reads before Ran was added; inconclusive means other falling curves, or compound fluorescence or quenching; inactive means flat or rising ratio curve;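 also: potency is read from the fitted curve at half-maximal effect; % of control where 0% means no effect; nearly all actives have a fitted effect of over 45% in size; -100% = wells without RanGTP and RCC1; the record marks most hits as doubtful in a second field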
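Recombinant Rango FRET biosensor (EYFP–snurportin 1 IBB–cerulean CFP10) at 0.1 uM premixed with 0.25 uM importin beta in PBS, 1 mM DTT, 0.02% Tween-20, 0.1% BSA. Compound added 5 min; RanGTP-RCC1 (0.6 uM Ran, 2 mM GTP, 0.2 uM RCC1) then triggers release, read at 45 min.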
Rango complex inh – inhibitors of Rango-importin beta complex formation; Q14974; Rango CFP/YFP FRET sensor + importin beta, 45 min; Potency, µM (series often up to 92.2 µM), inactives show at the highest dose inhibition of complex formation; hit rate 0.031% among 340,000; active = rising FRET ratio curve, often small or poorly fitted; inconclusive = mostly compound fluorescence or quenching in the first reads; inactive = flat curves in all reads;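 also: potency is read from the fitted curve at half-maximal effect; 0% = DMSO wells and 100% = buffer wells lacking importin beta; nearly all actives have a fitted effect of over 15% in size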
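Inhibition scored from the CFP 486 nm/YFP 530 nm FRET ratio 45 min after adding 0.125 microM importin beta to 50 nM Rango biosensor preincubated 5 min with compound (room temperature, PBS with DTT, Tween-20, BSA). No-importin wells as positive control.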
miR-21 reporter – miR-21 reporter, rising signal | HeLa miR-21 FLuc reporter, luciferase, 48 h | Potency, µM (doses to about 38.3 µM), for the others: at the highest dose reporter change, positive = more light | 340,000 tested, under 10 active | AID 2288; active = well fitted rising curve with a large enough effect; inconclusive = small, poorly fitted or top-dose-only effect; inactive = no such curve, though single readings can be large or run the other way;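 also: % of control where 0% means no effect; miR-21 action dims this reporter so a rising signal means less miR-21 action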
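Compounds were titrated across several concentrations (up to approximately 40 uM) and incubated 48 hours with HeLa miR-21-FLuc reporter cells (miR-21 target sequence downstream of FLuc, endogenous miR-21). Readout was firefly luciferase luminescence after lytic detection reagent.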
The depositor's hits bear a star; ? = inconclusive; · = no result given; & = joins results of further samples. Some of the compounds tested. The share of hits here may be higher or lower than overall.

SMILES,GLA inh pH 4.5,Rango dissoc inh,Rango complex inh,miR-21 reporter
O=c1cc(-c2ccc(O)c(O)c2)oc2cc(O)c([C@@H]3O[C@H](CO)[C@@H](O)[C@H](O)[C@H]3O)c(O)c12,·,-1%,?,·
O=C(Cc1ccccc1)NC1(Cc2ccc(O)cc2)CCCCC1,-22,3%,0.8%,-3%
CCOC(=O)c1ccc(NC(=O)c2nc[nH]c2C(=O)NCCCCCNC(=O)OC(C)(C)C)cc1,3,-8%,-3.3%,-4%
CCC1c2ccc(C)n2CCN1C(=O)Nc1ccc(F)cc1 (configuration not stated),2,?,?,-28%
COc1ccc(NC(=O)c2ccccc2NS(C)(=O)=O)cc1OC,2,2%,-0.5%,-11%
COC(=O)NCc1ccc(Cl)c(Cl)c1,4,6%,1.0%,-15%
O=C(COc1ccccc1F)NC1CCN(Cc2ccccc2)CC1,3,0%,-0.1%,-6%
Nc1ccc2nc(-c3ccccn3)[nH]c2c1,-4,-16%,-0.2%,-8%
CCOC(=O)CSc1nnc(Cn2nnc(-c3ccccc3)n2)n1C,2,-12%,3.1%,0%
COc1ccc(C(NC(=O)C2CCCCC2)c2c(O)ccc3ccccc23)cc1 (configuration not stated),-3,2%,-0.1%,16%
CCN(CC)c1ccc(NC(=O)COC(=O)Cc2ccsc2)cc1,·,-3%,-0.2%,·
CCOc1cc2[nH]c(=S)n(CCc3ccc(OC)c(OC)c3)c(=O)c2cc1OCC,3,2%,-0.2%,-7%
O=C(Cn1c(=O)cnc2ccccc21)N1CCN(S(=O)(=O)c2ccccc2Br)CC1,·,11%,-1.5%,·
COc1ccc(NC(=O)N(Cc2ccc(C)cc2)Cc2ccccn2)c(OC)c1,·,8%,3.0%,·
CCCCC(=O)Nc1nnc(S(=O)(=O)N2CCCc3ccccc32)s1,·,?,4.6%,0%
CCOC(=O)C1CCCCN1Cc1cc(OC)ccc1OC (configuration not stated),2,-10%,?,-2%
O=C(CCC1CCCN(C(=O)c2ccc3cc[nH]c3c2)C1)NCc1ccc(F)c(F)c1 (configuration not stated),-4,-7%,0.7%,-23%
Cc1onc(-c2ccccc2)c1C(=O)NC(=S)NNC(=O)c1cccnc1,-1,-1%,-3.7%,8%
Cc1cccc(CNS(=O)(=O)c2ccc(-c3ccc(=O)[nH]n3)s2)c1,·,-1%,-0.1%,-15%
COc1cc2cc(CN(CCO)S(=O)(=O)c3ccccc3Cl)c(=O)[nH]c2cc1OC,3,-11%,1.4%,-37%
Nc1c(-c2ccccc2)nnn1Cc1ccccc1,·,-12%,-0.2%,·
CC(=O)c1cc(-c2ccccc2)n(CC(=O)Nc2ccc(C)c(C)c2)c1C,-1,-15%,-1.6%,1%&-5%
Oc1ccc(CN2CCCCC2)nc1-c1ccccc1,5,1%,-0.4%,-5%
CC(C)OCCCn1c(=O)c2ccccc2n2c(CCC(=O)NCc3ccccn3)nnc12,·,8%,-0.7%,1%
CC1CCCN(S(=O)(=O)c2ccc(N(C(=O)c3cnccn3)C(C(=O)NC3CCCCC3)c3cccs3)cc2)C1 (configuration not stated),-4,4%,?,-17%
Cn1ncc(Br)c1C(=O)NC1CCCCCCC1,·,-10%,0.3%,0%
COc1ccc(NC(=O)CSc2nc3[nH]ncc3c(=O)n2-c2ccccc2OC)cc1OC,-21,-11%,-4.5%,-17%
CCc1cccc2c(C(=O)COC(=O)c3cccc(S(=O)(=O)N(C)C4CCCCC4)c3)c[nH]c12,-5,11%,2.6%,-13%
CC(C)(C)c1ccc(COn2c(=O)c(-c3ccco3)[n+]([O-])c3ccccc32)cc1,2,10%,0.2%,3%
COc1cc2c(cc1NCc1ccccn1)oc1ccccc12,5,-24%,?,-29%
Cc1cc(C)c2sc(N)nc2c1,-3,-3%,-3.5%,1%
CCC(CO)Oc1cc(NCc2ccccc2)c2ncn(C3CCCC3)c2c1 (configuration not stated),·,?,?,·
COc1cc(/C=N/N=C(\N)c2nonc2N)cc(OC)c1O,-14,7%,2.6%,-45%
COc1ccc(C(=O)C2CCCN(Cc3cnc(N4CCOCC4)s3)C2)cc1F (configuration not stated),1,3%,-1.0%,21%
COc1ccc(NC(=O)Nc2ccccc2)cc1S(=O)(=O)N1CCCCC1,-3,11%,?,6%
Cc1nnc(SCc2ccc(Cl)cc2)n1CC1CCCO1 (configuration not stated),-14,2%,-3.4%,0%
COc1ccc(NC(=O)C2CCCN2c2ccc(OC)c(OC)c2)cc1OC (configuration not stated),6,?,-0.9%,-12%
Cc1cc(OCC(=O)OCC(=O)N2CCc3ccccc3C2)ccc1Cl,·,-8%,0.0%,·
Fc1ccc(C[n+]2csc3ccccc32)cc1,1,-4%,-3.3%,1%
N#C/C(=C(/O)CN1CCOCC1)c1nc2ccccc2s1,8,1%,-2.3%,-10%
Cc1ccc(S(=O)(=O)N2CCC(Oc3cccc(C(F)(F)F)c3)CC2)cc1,·,-2%,0.7%,-1%
Cc1ccc2cccc(OCC(=O)Nc3ccc(N4CCOCC4)cc3)c2n1,-17,-19%,-0.1%,0%
COc1cccc(-n2c(=O)c3cc(OC)c(OC)cc3n(CC(=O)Nc3cc(C)[nH]n3)c2=O)c1,-6,0%,0.9%,-9%
COCCCNC(=O)c1ccc(Cn2c(=O)c3ccccc3n(Cc3ccc(C)cc3)c2=O)cc1,1,-15%,0.1%,-4%&-5%
CCCS(=O)(=O)c1c(S(=O)(=O)CCC)c2c3ccccc3ccn2c1C(N)=O,4,-4%,-2.2%,2%
COc1ccccc1NC(=O)c1ccc(CN(c2cc(Cl)ccc2C)S(=O)(=O)c2ccccc2)cc1,8,-3%,-0.8%,0%
CCOc1cc(N2CCOCC2)c(OCC)cc1NC(=O)c1c(-c2ccccc2Cl)noc1C,1,-7%,4.5%,7%
Cc1c(C(=O)CN2CCOCC2)[nH]c2ccccc12,5,-7%,?,-6%
COc1ccc(OCc2nnc(SCC(=O)N3C(C)CCCC3C)o2)cc1 (configuration not stated),·,2%,-1.2%,1%
Cc1ccc(NC(=O)c2cc(S(=O)(=O)N3CCCCC3)cs2)cc1,-5,6%,0.2%,20%
O=C(COC(=O)c1cnccn1)c1ccc(Cl)cc1,-11,-2%,-2.8%,0%
O=C1/C(=C\c2ccc(O)c(O)c2)SC(=S)N1Cc1ccccc1,·,?,?,28%
COC(=O)Cc1ccc(NC(=O)C(c2ccccc2)c2ccccc2)cc1,0,3%,-0.2%,2%
CCc1ccc(-c2cc(C)no2)cc1S(=O)(=O)NCc1ccc(OC)c(OC)c1,·,-14%,1.1%,5%
O=C1c2ccc3c4c(ccc(c24)C(=O)N1c1cccc(O)c1)CC3,-8,-10%,?,-6%
O=C(CSc1nc(N2CCCCC2)nc(N2CCCCC2)n1)c1ccccc1,-2,17%,5.1%,-1%
Cc1ccc(C(=O)N2NC(c3ccc(F)cc3)C3C(=O)N(c4ccc(C)cc4)C(=O)C32)cc1 (configuration not stated),-15,20%,-3.3%,-13%
CN(C)S(=O)(=O)c1ccc(C(=O)N2CCOCC2)cc1,5,-3%,3.3%,-2%
CC(C)OC(=O)CN1C(=O)C(C)(C)Oc2ccc(C(=O)NC3CC3)cc21,3,0%,2.1%,1%
COCC(=O)N(Cc1ccc(OC)cc1)Cc1nc2ccccc2c(=O)[nH]1,4,-8%,-0.2%,-13%

The list continues:
SMILES,GLA inh pH 4.5,Rango dissoc inh,Rango complex inh,miR-21 reporter
O=C(CSc1nc(O)c(Cc2ccccc2F)c(=O)[nH]1)N1CCCCCC1,3,3%,0.4%,0%
CCCN1CNC(=S)N(CCc2ccccc2)C1,8,5%,0.9%,-3%
Oc1ccc(-c2csc(Nc3ccc4c(c3)OCO4)n2)c(O)c1,·,30%,0.8%,·
CN(CC(=O)Nc1ccccc1)CC(=O)Nc1ccccc1Cl,·,-1%,-0.1%,-23%
COC(=O)c1cc(S(=O)(=O)NC2CCC(C)CC2)cn1C (configuration not stated),·,-6%,-0.4%,-2%
O=C1C(=C(c2ccccc2)c2ccccc2)Nc2ccccc21,-2,-8%,-1.8%,21%
CCc1c(C)nc(SCC(=O)N2CC(C)OC(C)C2)[nH]c1=O (configuration not stated),·,18%,2.8%,·
Cn1c2c(c(=O)n(C)c1=O)C(CC(=O)Nc1ccc(F)cc1)C(=O)N2 (configuration not stated),-2,-8%,-0.4%,1%
COc1ccc(S(=O)(=O)N2CCCCC2)cc1NC(=O)c1cccc(S(=O)(=O)N2CCOCC2)c1,·,-15%,0.9%,·
C=CCn1c(NC(=O)c2ccc(C)cc2)c(C#N)sc1=N,2,?,?,-22%
COC(=O)c1ccc(-c2noc(CN3CCCCC3c3nccn3C)n2)cc1 (configuration not stated),-10,-11%,1.4%,-1%
O=C(COC(=O)Cc1ccccc1F)Nc1ccc2[nH]c(=O)[nH]c2c1,·,-17%,-3.4%,·
CSc1nsc(SC)c1NC(=O)OCc1ccccc1,-28,1%,3.2%,-32%
Cc1ccc2nc(-c3ccccn3)c(Nc3ccccc3C)n2c1,-11,-16%,-1.1%,27%&21%
Nc1nnc(-c2cc3ccccc3oc2=O)s1,-5,?,?,-52%
CC1(C)C(c2cccs2)=[N+]([O-])C2(CCCCC/C2=N\NC(N)=S)N1O (configuration not stated),4,-14%,-2.7%,-3%
COc1ccc(C2C(C(=O)c3cccs3)=C(O)C(=O)N2c2nncs2)cc1 (configuration not stated),-3,?,?,-15%
O=C(NCc1ccc(Cl)cc1)c1ccc(Br)o1,-3&6,-1%,0.1%,-12%
CC(C)OCCCNC(=O)C(NS(=O)(=O)c1ccc2c(c1)c(=O)n(C)c(=O)n2C)c1ccccc1 (configuration not stated),4,·,·,-1%
CC(C)(C)C(=O)N(CCN(C(=O)C(C)(C)C)c1ccccc1)c1ccccc1,3,-9%,-5.6%,-1%
O=C(NCCc1cn2ccccc2n1)c1cc(COc2ccc3ncccc3c2)on1,-20,-1%,-0.6%,?
Cn1ccc(C(=O)NC(=S)N2CCSCC2)n1,-1,17%,0.2%,-16%
Cc1cccc(Cc2nnc(NC(=O)c3cccc(S(=O)(=O)N4CCOCC4)c3)s2)c1,-3,13%,-0.1%,-2%
COCC1CCN(Cc2nc(-c3ccc4c(c3)OCO4)no2)C1 (configuration not stated),1,-2%,-0.3%,-48%
COc1ccc(C(CNC(=O)COc2ccc(Br)cc2F)N2CCCC2)cc1 (configuration not stated),4,1%,0.9%,-4%
C#CCOCCOCCOCCNc1nc(N2CCN(C(=O)[C@H]([C@@H](C)CC)n3cc(CCCN=C(N)N)nn3)CC2)nc(N2CCN(C(=O)[C@H](CCCCN)n3cc(CCCC)nn3)CC2)n1,6,4%,2.4%,-13%
CN(c1ccccc1)S(=O)(=O)c1ccc(C(=O)Nc2nnc(-c3ccco3)o2)cc1,-3,-2%,0.1%,?
O=C(c1ccc(Cl)c([N+](=O)[O-])c1)N(Cc1ccc(F)cc1)C1CCS(=O)(=O)C1 (configuration not stated),-3,21%,1.6%,3%
O=C(Nc1nncs1)c1ccc(N2C(=O)C3C4C=CC(C4)C3C2=O)cc1 (configuration not stated),-20,2%,-1.3%,-20%
O=C(COc1ccc(Cl)cc1)N1CCN(c2ccc([N+](=O)[O-])c(N3CCOCC3)c2)CC1,-8,?,1.6%,-1%
CCOC(=O)C1=C(c2ccccc2)OC(N)=C(C#N)C1C(C)C (configuration not stated),-3,1%,-1.6%,-1%
